High-throughput results from PubChem.
GLA inh pH 4.5: alpha-galactosidase A (human) inhibition, pH 4.5; purified enzyme, 4-MU-alpha-Gal fluorescence, pH 4.5; activity change, negative = inhibition, % at 105 µM; 230,000 tested, under 10 active; inconclusive = small, poorly fitted or top-dose-only inhibition, or a rising curve; inactive = flat fitted curve, though single readings scatter; no compound was filed as active;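 also: 0% = full activity with enzyme and -100% = basal without enzyme; dose as in the result columns while the protocol names 77 µM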
miR-21 FLuc: raises the signal of a miR-21 reporter; HeLa miR-21 FLuc reporter, luciferase, 48 h; 340,000 tested, under 10 active; Potency, µM (doses to about 38.3 µM), for inactives: at the highest dose reporter change, positive = more light; active = well fitted rising curve with a large enough effect; inconclusive = small, poorly fitted or top-dose-only effect; inactive = no such curve, though single readings can be large or run the other way;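 also: % of control where 0% means no effect; miR-21 action dims this reporter so a rising signal means less miR-21 action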
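HeLa cells stably expressing CMV-driven firefly luciferase with a downstream miR-21 binding sequence, endogenously expressing miR-21, were treated with titrations (up to about 40uM final) for 48 hours at 37 degree Celsius. Luciferase luminescence was read after lysis.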
Rango-impB inh: prevents formation of the Rango-importin beta complex. Rango CFP/YFP FRET sensor + importin beta, 45 min. Q14974. Potency, µM (series often up to 92.2 µM), inactives show top-dose inhibition of complex formation. AID 540263. actives 0.031% (n = 340,000); active = rising FRET ratio curve, often small or poorly fitted; inconclusive = mostly compound fluorescence or quenching in the first reads; inactive = flat curves in all reads;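 also: potency is read from the fitted curve at half-maximal effect; 0% = DMSO wells and 100% = buffer wells lacking importin beta; nearly all actives have a fitted effect of over 15% in size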
Target sequence (Q14974 whole entry, looked up): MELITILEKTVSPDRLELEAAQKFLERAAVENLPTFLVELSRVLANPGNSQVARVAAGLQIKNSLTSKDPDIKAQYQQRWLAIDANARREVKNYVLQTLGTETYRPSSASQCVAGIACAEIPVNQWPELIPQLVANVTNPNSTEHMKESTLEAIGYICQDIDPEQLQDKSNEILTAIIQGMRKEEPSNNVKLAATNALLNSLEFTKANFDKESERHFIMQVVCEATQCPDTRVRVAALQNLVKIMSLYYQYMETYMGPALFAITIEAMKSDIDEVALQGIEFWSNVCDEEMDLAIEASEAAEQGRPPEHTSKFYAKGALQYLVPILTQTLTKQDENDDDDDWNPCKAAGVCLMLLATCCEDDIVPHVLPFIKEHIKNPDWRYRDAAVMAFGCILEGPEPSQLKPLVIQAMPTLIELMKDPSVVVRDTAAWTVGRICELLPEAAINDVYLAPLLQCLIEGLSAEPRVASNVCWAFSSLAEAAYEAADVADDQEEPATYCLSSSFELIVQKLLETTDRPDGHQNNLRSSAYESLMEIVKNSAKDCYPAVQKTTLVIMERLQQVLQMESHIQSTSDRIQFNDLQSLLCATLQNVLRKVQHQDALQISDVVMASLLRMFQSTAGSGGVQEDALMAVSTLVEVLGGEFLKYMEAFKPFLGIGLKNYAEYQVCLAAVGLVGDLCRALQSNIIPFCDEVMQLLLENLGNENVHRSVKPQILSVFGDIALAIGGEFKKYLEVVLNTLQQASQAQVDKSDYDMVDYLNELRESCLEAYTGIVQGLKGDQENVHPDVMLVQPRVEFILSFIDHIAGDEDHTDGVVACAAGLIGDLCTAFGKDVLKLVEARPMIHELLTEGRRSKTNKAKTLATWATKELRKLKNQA
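Inhibition scored from the CFP 486 nm/YFP 530 nm FRET ratio 45 min after adding 0.125 microM importin beta to 50 nM Rango biosensor preincubated 5 min with compound (room temperature, PBS with DTT, Tween-20, BSA). No-importin wells as positive control.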
Rango release inh: prevents RanGTP from dissociating the Rango-importin beta complex; O95149+P62826; Biochemical FRET Rango-importin beta, RanGTP-induced dissociation; Potency, µM (doses to about 46.1 µM), for inactives: at the highest dose activity change, negative = inhibition; actives 0.071% (n = 340,000); active means falling FRET ratio curve, often poorly fitted, with flat reads before Ran was added; inconclusive means other falling curves, or compound fluorescence or quenching; inactive means flat or rising ratio curve;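 also: potency is read from the fitted curve at half-maximal effect; % of control where 0% means no effect; nearly all actives have a fitted effect of over 45% in size; -100% = wells without RanGTP and RCC1; the record marks most hits as doubtful in a second field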
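Two FRET readings bracket the reaction: one 5 min after compound meets Rango–importin beta, another 45 min after RanGTP-RCC1 (0.6 uM Ran, 0.2 uM RCC1, 2 mM GTP) is added. Only the second defines inhibition.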
Starred values were filed as active, the others as inactive. This is a subset; count on the stated rates, not on these rows.

Screening Cc1cc(N2CCCCCC2)nc(-c2ccccc2O)n1 returned GLA inh pH 4.5 -4.4, miR-21 FLuc -3.5%, Rango-impB inh -0.2% and Rango release inh inconclusive.
For CCn1c(CC(=O)Nc2ccccc2)nnc1SCC(=O)Nc1ccccc1C(=O)OC the results were GLA inh pH 4.5 2.9, miR-21 FLuc -2.9%, Rango-impB inh -1.6% and Rango release inh 7.0%.
`CCOC(=O)c1c(C)[nH]c(C(=O)COC(=O)c2ccc([N+](=O)[O-])o2)c1C` gave Rango-impB inh 1.6% and Rango release inh 7.6%.
For COc1cccc(CC(=O)OCC(=O)NC2(C#N)CCCCC2)c1 the results were Rango-impB inh 3.7% and Rango release inh -4.0%.
For CCN(C(=S)NCc1ccccc1)c1cccc2ccccc12 the results were GLA inh pH 4.5 -2.7, miR-21 FLuc 3.6%, Rango-impB inh inconclusive and Rango release inh 2.0%.
Screening CCOC(=O)N1CCN(C(=O)CCCn2c(=O)[nH]c3ccccc3c2=O)CC1 returned GLA inh pH 4.5 -1.1, miR-21 FLuc -1.1%, Rango-impB inh 0.0% and Rango release inh 0.2%.
CCOC(=O)C1(CCOC)CCN(Cc2ccc(COC)o2)CC1 was read as GLA inh pH 4.5 5.2, miR-21 FLuc 1.9%, Rango-impB inh -2.9% and Rango release inh -9.8%.
For Cc1ccc(SCCNCc2ccco2)cc1 the results were miR-21 FLuc -16.6%, Rango-impB inh 2.3% and Rango release inh 4.0%.
Cc1cc2cc(CN(Cc3ccco3)C(=S)NCC3CCCO3)c(=O)[nH]c2cc1C (stereo not given) was read as GLA inh pH 4.5 -5.9, miR-21 FLuc -5.7%, Rango-impB inh inconclusive and Rango release inh -10.9%.
`CC1CN(C(=O)CCC(=O)NCc2ccccc2)c2ccccc2O1` (stereo not given) gave miR-21 FLuc -2.6%, Rango-impB inh 0.5% and Rango release inh 19.2%.
Screening O=C(Nc1ccccc1)c1ccc(N2CCN(c3ccccc3)CC2)c(S(=O)(=O)N2CCOCC2)c1 returned GLA inh pH 4.5 -2.6, miR-21 FLuc -3.6%, Rango-impB inh -0.7% and Rango release inh 13.4%.
For Cc1ccc(NC(=S)NCCN2CCOCC2)cc1F the results were GLA inh pH 4.5 -0.6, miR-21 FLuc -10.5%, Rango-impB inh -2.4% and Rango release inh -4.0%.
For COc1cccc(SCc2noc(C(=O)NC(C)C)c2C(=O)O)c1 the results were GLA inh pH 4.5 -1.2, miR-21 FLuc -6.3%, Rango-impB inh 3.9% and Rango release inh -14.8%.
`OC(COC1CCCCC1)CN1CCCCC1` (stereo not given) gave miR-21 FLuc -7.7%, Rango-impB inh 1.8% and Rango release inh 7.3%.
For CCOc1ccc(N2C(=O)/C(=C\c3ccccc3OC)S(=O)(=O)C2c2cccc([N+](=O)[O-])c2)cc1 (stereo not given) the results were GLA inh pH 4.5 2.1, miR-21 FLuc -6.9%, Rango-impB inh -2.2% and Rango release inh -1.8%.
COc1cccc(C(=O)NNC(=O)c2cccc(F)c2)c1 was read as miR-21 FLuc -47.5%, Rango-impB inh -2.6% and Rango release inh -14.3%.
Screening Cc1cc(OCC(=O)Nc2ccccc2N2CCCCC2)ccc1C(C)C returned Rango-impB inh 4.9% and Rango release inh 4.3%.
For COc1ccc(C(c2nnnn2C2CCCCC2)N2CCN(c3ccc(OC)cc3)CC2)cc1 (stereo not given) the results were GLA inh pH 4.5 -2.9, miR-21 FLuc 7.0%, Rango-impB inh -0.8% and Rango release inh 2.3%.
CCCOC(=O)C1=C(C)NC(=O)NC1c1cc2c(cc1Br)OCO2 (stereo not given) was read as miR-21 FLuc -0.3%, Rango-impB inh 0.1% and Rango release inh 15.9%.
`Oc1ccc(C2=CSC3=NCCN23)cc1O` gave miR-21 FLuc -17.3%, Rango-impB inh 2.6% and Rango release inh -17.8%.

3 consecutive entries out of the list so far, for reference:
For COc1ccc(C(c2nnnn2C2CCCCC2)N2CCN(c3ccc(OC)cc3)CC2)cc1 (stereo not given) the results were GLA inh pH 4.5 -2.9, miR-21 FLuc 7.0%, Rango-impB inh -0.8% and Rango release inh 2.3%.
CCCOC(=O)C1=C(C)NC(=O)NC1c1cc2c(cc1Br)OCO2 (stereo not given) was read as miR-21 FLuc -0.3%, Rango-impB inh 0.1% and Rango release inh 15.9%.
`Oc1ccc(C2=CSC3=NCCN23)cc1O` gave miR-21 FLuc -17.3%, Rango-impB inh 2.6% and Rango release inh -17.8%.

(next part)
For Cc1ccc(S(=O)(=O)NNC(=O)c2sccc2-n2cccc2)cc1 the results were GLA inh pH 4.5 inconclusive, miR-21 FLuc -1.8%, Rango-impB inh -2.7% and Rango release inh 3.4%.
`CCC(C)NS(=O)(=O)c1ccc(NC(=O)Cc2ccc(OC)cc2)cc1` (stereo not given) gave GLA inh pH 4.5 2.4, miR-21 FLuc -5.7%, Rango-impB inh 0.8% and Rango release inh -2.5%.
For O=C(CNC(=O)c1cccs1)Nc1ncccc1O the results were Rango-impB inh -0.3% and Rango release inh -0.5%.
Screening C=CCn1c(SCC(=O)Nc2ccc(NC(=O)c3ccco3)c(OC)c2)nnc1-c1ccncc1 returned GLA inh pH 4.5 -8.7, miR-21 FLuc -7.1%, Rango-impB inh -4.2% and Rango release inh -1.2%.
`Cn1cnc([N+](=O)[O-])c1S(=O)(=O)Nc1ccccc1` gave Rango-impB inh -0.8% and Rango release inh 3.9%.
`O=C(COC(=O)c1cnc(Cl)c(Cl)c1)Nc1cccc(S(=O)(=O)N2CCOCC2)c1` gave Rango-impB inh 3.4% and Rango release inh -7.5%.
O=C(COc1ccc(Cl)cc1)NCc1nnc(SCC(=O)NCc2ccc3c(c2)OCO3)o1 was read as GLA inh pH 4.5 1.0, miR-21 FLuc -4.9%, Rango-impB inh 2.6% and Rango release inh -3.9%.
Screening Cc1cccc2cc(CN(CCc3ccccc3)C(=O)N3CCOCC3)c3nnnn3c12 returned GLA inh pH 4.5 0.3, miR-21 FLuc 0.3%, Rango-impB inh 0.6% and Rango release inh 3.7%.
`CCc1nnc(NC(=O)CSc2nnc(-c3ccncc3)n2Cc2ccccc2)s1` gave GLA inh pH 4.5 -0.3 and miR-21 FLuc -2.4%.
COc1ccc(OC)c(-c2cc(C(=O)NCCCn3ccnc3)no2)c1 was read as GLA inh pH 4.5 -2.6, miR-21 FLuc -33.6%, Rango-impB inh -1.9% and Rango release inh -7.6%.
For CCOC(=O)C1C(C(C)=O)=C(c2ccccc2)c2ccccc2N1S(=O)(=O)C(F)(F)F (stereo not given) the results were GLA inh pH 4.5 -6.3, Rango-impB inh 3.2% and Rango release inh 0.8%.
`CC1(C)C(=O)OC(c2cccs2)C2(CCCCC2)C1=O` (stereo not given) gave GLA inh pH 4.5 -6.9, miR-21 FLuc 5.9%, Rango-impB inh 5.9% and Rango release inh -11.4%.
Screening CNC(=O)CN(CCc1ccccc1)S(=O)(=O)c1ccc(OC)cc1 returned miR-21 FLuc 1.2%, Rango-impB inh 0.0% and Rango release inh 2.9%.
C/C(N)=C(/C#N)C(=O)CSc1nc2ccccc2c(=O)n1-c1ccc(C)c(Cl)c1 was read as GLA inh pH 4.5 11.2, miR-21 FLuc 2.1%, Rango-impB inh -0.5% and Rango release inh 2.1%.
Screening CCOC(=O)C1C(c2cccc(Cl)c2Cl)NC(=O)NC1(O)C(F)(F)F (stereo not given) returned GLA inh pH 4.5 -19.3, miR-21 FLuc -0.4%, Rango-impB inh 7.2% and Rango release inh -2.1%.
For Cn1nnnc1SCc1ccc(F)cc1 the results were GLA inh pH 4.5 1.4, miR-21 FLuc -8.4%, Rango-impB inh -0.1% and Rango release inh 13.6%.
Screening C#CCNC(=O)C1=C[C@@H](c2ccc(C(F)(F)F)cc2)C[C@@H](OCCCCO)O1 returned GLA inh pH 4.5 6.2, miR-21 FLuc -18.2%, Rango-impB inh -1.5% and Rango release inh -15.6%.
Screening O=C(O)CSc1ccc2nnc(-c3cccnc3)n2n1 returned GLA inh pH 4.5 7.8, miR-21 FLuc 2.2%, Rango-impB inh 0.0% and Rango release inh 14.3%.
Screening Cc1ccc(S(=O)(=O)N2CCN(C)CC2)c(C)c1N(C)S(=O)(=O)c1ccc(Cl)cc1 returned GLA inh pH 4.5 2.6, miR-21 FLuc 2.1%, Rango-impB inh -3.9% and Rango release inh -11.9%.
For CCn1c(CC(=O)Nc2ccccc2)nnc1SCC(=O)NC1=NCCS1 the results were miR-21 FLuc 7.2%, Rango-impB inh 0.3% and Rango release inh inconclusive.
Cc1ccc(C(=O)NCC2CCCO2)o1 (stereo not given) was read as GLA inh pH 4.5 -2.2, miR-21 FLuc 1.4%, Rango-impB inh -1.3% and Rango release inh -4.5%.
Screening Cc1cc(C)n(-c2ccc(NC(=O)C3CCN(Cc4ccc(C)o4)CC3)cc2)n1 returned miR-21 FLuc 0.5%, Rango-impB inh 1.8% and Rango release inh -6.2%.
Screening O=C(NN=C1CCCC1)c1cc(-c2ccccc2)n[nH]1 returned GLA inh pH 4.5 -3.4, miR-21 FLuc -11.5%, Rango-impB inh 0.6% and Rango release inh 1.3%.
O=C(/C=C/CCc1ccc2c(c1)OCO2)N1CCCCC1 was read as Rango-impB inh -1.9% and Rango release inh -5.0%.
Screening Cc1cc(C)n2c(SCC(=O)Nc3cccc(S(N)(=O)=O)c3)nnc2n1 returned Rango-impB inh -0.5% and Rango release inh 4.2%.
Screening CC(C)n1c(O)c(N=NC(=O)c2ccccc2NS(=O)(=O)c2cccs2)c2ccccc21 returned GLA inh pH 4.5 1.3, miR-21 FLuc -0.1%, Rango-impB inh 0.1% and Rango release inh -11.7%.
Screening CCC(C)C(N)C(=O)NC(CCC(=O)OCc1ccccc1)C(N)=O (stereo not given) returned GLA inh pH 4.5 6.2, miR-21 FLuc -1.3%, Rango-impB inh -1.3% and Rango release inh -6.0%.
Screening Cc1ccc(NC(=O)CCC(=O)OCC(F)(F)C(F)F)cc1 returned GLA inh pH 4.5 2.0, miR-21 FLuc -0.9%, Rango-impB inh 0.0% and Rango release inh -12.5%.
Screening CC(c1ccccc1)N1C(=O)NC(NC(=O)c2cccnc2)(C(F)(F)F)C1=O (stereo not given) returned GLA inh pH 4.5 9.9, miR-21 FLuc -0.5%, Rango-impB inh 0.5% and Rango release inh 5.7%.
For O=C1OCc2ccc(NC(=O)c3ccccc3C(=O)O)cc21 the results were miR-21 FLuc -6.9%, Rango-impB inh 0.3% and Rango release inh 5.0%.
For COC(=O)c1ccc2c(=O)n(CCCCCC(=O)NCCNC(C)=O)c(=O)[nH]c2c1 the results were GLA inh pH 4.5 26.6, miR-21 FLuc 6.2%, Rango-impB inh -5.0% and Rango release inh -8.3%.
Screening COc1ccc(OCC(=O)Nc2c3c(nn2-c2ccccc2)CS(=O)(=O)C3)cc1 returned miR-21 FLuc -4.1%, Rango-impB inh -2.2% and Rango release inh -6.3%.
O=C(c1ccc([N+](=O)[O-])cc1)N1CCc2ccccc2C1 was read as GLA inh pH 4.5 -4.7, miR-21 FLuc -22.9%, Rango-impB inh -1.7% and Rango release inh -7.3%.
O=Cc1cn(CC(=O)Nc2ccc3c(c2)OCO3)c2ccccc12 was read as GLA inh pH 4.5 0.7, miR-21 FLuc 9.9%, Rango-impB inh -0.1% and Rango release inh 6.9%.
For CCOC(=O)c1ccc(-c2c(-c3ccccc3OC)sc3cc4c(cc23)OCO4)cc1F the results were Rango-impB inh -1.7% and Rango release inh 10.4%.
Screening COCCNC(=O)c1cc(-c2ccccc2C)nn1CC1CC(c2cccnc2)=NO1 (stereo not given) returned Rango-impB inh -0.3% and Rango release inh 0.5%.
COc1ccccc1CNC(=O)CN1C(=O)c2ccccc2S1(=O)=O was read as miR-21 FLuc 0.8%, Rango-impB inh 3.7% and Rango release inh -16.1%.
Screening O=C(Cc1ccc([N+](=O)[O-])cc1)N1CCN=C1SCc1ccccc1 returned GLA inh pH 4.5 0.0, miR-21 FLuc -7.3%, Rango-impB inh 2.0% and Rango release inh -2.7%.
Screening C=CCC1(C#N)C(=S)NC(C)=C(C(=O)OCC)C1c1ccccc1 (stereo not given) returned GLA inh pH 4.5 -2.6, miR-21 FLuc -5.2%, Rango-impB inh 0.2% and Rango release inh 4.5%.
For CCOC(=O)c1cc(-c2cccc([N+](=O)[O-])c2)nc2[nH]c(=O)[nH]c(=O)c12 the results were GLA inh pH 4.5 -3.7, miR-21 FLuc -5.9%, Rango-impB inh -0.1% and Rango release inh -9.4%.
